Bioassay records from PubChem BioAssay.
Sa growth inh: inhibitors of Staphylococcus aureus growth at 42 °C; relative growth, % (concentration not given with the values); AID 720641; hit rate 0.53% among 170,000; S. aureus RN4220 growth, OD600, 20 h; active compounds read low;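 active means growth at 42 °C up to 50% and 20 or more points under that at 30 °C, or under 10% at both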;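 further: 300 nL library stock went into each well; scaled to the means of positive and negative controls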
HCMV UL50-53 inh: cytomegalovirus nuclear egress complex inhibition. HTRF UL50-UL53 interaction, normalized percent inhibition. inhibition, % (no concentration beside the values). hit rate 0.15% among 190,000. AID 1918969;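 active means both replicates at 50% or more, plus weaker picks with an unusually low signal ratio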;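 further: stock transfer was 100 nL into about 20 µL; 0% = negative control wells and 100% = wells with untagged competitor protein; inactives centre near -12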
GIV Gai3 FP: inhibitors of GIV GBA-motif binding to rat Galpha-i3; Galpha-i3/FITC-GIV peptide fluorescence polarization, 90 min; active compounds read low; scaled: aluminum fluoride 0%, vehicle 100%; percent of control (FP), % (concentration not given with the values); hit rate 0.42% among 210,000;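 active means replicate mean at 85% of control or lower, very high polarization wells dropped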;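 further: wells of about 15 µL received 100 nL stock; the first replicate is given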
Target sequence (P08753 whole entry, looked up): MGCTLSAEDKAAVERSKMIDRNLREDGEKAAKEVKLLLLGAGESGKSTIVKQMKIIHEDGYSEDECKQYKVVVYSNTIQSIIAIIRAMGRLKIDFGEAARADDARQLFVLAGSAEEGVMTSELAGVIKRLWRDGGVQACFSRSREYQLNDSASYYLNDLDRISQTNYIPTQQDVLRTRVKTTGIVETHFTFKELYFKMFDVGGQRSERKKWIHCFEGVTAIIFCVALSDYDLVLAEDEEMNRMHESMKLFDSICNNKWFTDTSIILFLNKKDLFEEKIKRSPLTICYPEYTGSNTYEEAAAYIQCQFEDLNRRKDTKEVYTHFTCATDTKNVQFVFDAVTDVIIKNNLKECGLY
Sa growth inh second temp: also measured in Sa growth inh; calls as there; relative growth, %; measured here: growth at 30 °C;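 optical density after 20 h as mean of two plates; 100% = untreated growth and lower means inhibition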
An asterisk follows results filed as active; x = no result given; & = joins results of further samples.

Under each structure – Sa growth inh	Sa growth inh second temp	HCMV UL50-53 inh	GIV Gai3 FP
> CC1(C)C2CC=C(/C=N/NC(=O)c3ccc(O)cc3)C1C2 (stereo unspecified)
→ 97	92	-22	x
> O=[N+]([O-])c1cccc(S(=O)(=O)Nc2ccc(-c3cn4ccccc4n3)cc2)c1
→ x	x	-43	109
> Cc1cc(=O)n2[nH]cc(C(=O)O)c2n1
→ 89	85	-15	101
> CC(C)c1ccc(OCCCN2CCCC2)cc1
→ 88	102	x	97
> O=C(c1ccc(Br)cc1)N1CCC(c2nc(-c3ccccc3)no2)CC1
→ x	x	5	103
> Cc1ccc(SC(=O)c2cc(C)on2)cc1
→ 92	80	4	105
> CCOc1ccc(N=C(N)N=C(N)N)cc1
→ 88	101	7	107
> COc1ccccc1NC(=O)Nc1ccc(Nc2cc(N3CCCC3)nc(C)n2)cc1
→ x	x	-18	103
> CN(C)c1ccc(-c2nc(-c3cccc(I)c3)cc(=O)o2)cc1
→ 115	98	x	-18*
> COc1ccc(C2CC(=O)C3=C(C2)Nc2ccccc2N(C(=O)CCC(=O)O)C3c2cccs2)cc1OC (stereo unspecified)
→ 92	78	2	x
> NS(=O)(=O)c1ccc(-c2ccc(C3Nc4ccccc4-c4nc5ccccc5n43)o2)cc1 (stereo unspecified)
→ 104	98	-7	102
> CN(C)c1ccc(C(=O)NCc2ccc(S(N)(=O)=O)cc2)cc1
→ 98	100	3	105
> CCCCNC(=O)[C@@H](c1ccccc1)N1Cc2ccccc2C1=O
→ 108	86	12	104
> Cc1ccc(-c2onc(C)c2C)cc1S(=O)(=O)N1CCN(c2ccccc2F)CC1
→ 90	92	x	104
> O=C(NC(=S)Nc1nncs1)c1ccccc1
→ 98	78	-16	x
> CC(C)OC(=O)c1cc2c(ccn2C)n1CC(=O)N(Cc1ccccc1)c1ccccc1
→ 98	74	-5	101
> Cc1ccc(C(O)C(=O)c2ccccc2)o1 (stereo unspecified)
→ 120	91	x	108
> CNC(=O)COC(=O)c1ccccc1C(=O)c1ccccc1
→ 110	105	12	x
> S=C1SCN(Cc2ccccc2)CN1Cc1ccccc1
→ 92	85	-40	98
> COC(=O)C1CCN(C(=O)CSc2nnc3n(-c4c(C)cccc4C)c(=O)c4ccccc4n23)CC1
→ 118	92	-31	x
> Clc1nc2sccn2c1C=Nc1ccccc1
→ x	x	4	103
> CC1=C(C(=O)Nc2ccccc2)C(c2ccc(C(=O)O)cc2)n2nc(SCC(=O)c3ccc(C)cc3)nc2N1 (stereo unspecified)
→ 99	87	x	100&101
> CCCCCCSc1nnc2c(n1)OC(C)Nc1ccc(Br)cc1-2 (stereo unspecified)
→ 110	82	-28	106
> CCC(CO)NC(=O)c1ccc(N)cc1 (stereo unspecified)
→ 82	92	1	x
> COc1cccc(N=Cc2ccc(O)cc2)c1
→ 104	85	-3	x
> Cc1ccc(CNS(=O)(=O)c2cc(C(=O)N3CCC(C)CC3)cs2)o1
→ x	x	-32	107
> Cn1ccsc1=NC(=O)/C=C/c1ccc(S(=O)(=O)N2CCCCCC2)cc1
→ 99	96	-35	x
> O=C(NCc1nc(-c2ccccc2)no1)c1ccco1
→ 105	88	-16	108
> O=C(Nc1ccc(OCc2cc(=O)n3[nH]cnc3n2)cc1)c1ccc(Cl)cc1
→ x	x	-14	101
> O=c1cc(-c2ccccc2)nc(SCc2nc(-c3ccccc3Cl)no2)[nH]1
→ 115	77	x	101
> Cc1ccc(-n2nc(N3CCN(C(=O)Nc4ccc5c(c4)OCO5)CC3)ccc2=O)cc1
→ x	x	-56	104
> CC(=O)Nc1c(Cl)n(C(C)=O)c2ccccc12
→ 114	91	-10	101
> CCn1c2ccccc2c2cc(/C=C(\C#N)S(=O)(=O)c3ccccc3)ccc21
→ 120	97	-7	184
> CS(=O)(=O)Nc1cccc(C(=O)O)c1
→ 98	91	-11	x
> Cc1nn(C(=O)c2ccccc2)cc1-c1nsc(Nc2ccccc2)n1
→ 100	90	-50	106
> CCN(C(=O)CC(C)C)c1nnc(-c2ccccc2C)s1
→ 79	75	-6	103
> CC(=O)N1CCc2cc(S(=O)(=O)CCC(=O)N3CCN(c4ccccc4F)CC3)ccc21
→ x	x	-8	112
> COc1ccc2sc(N(CCN(C)C)C(=O)c3ccc4ncsc4c3)nc2c1
→ x	x	3	107
> COc1ccc(NC(=O)Cn2c(=O)oc3cc(S(=O)(=O)N4CCCCCC4)ccc32)cc1OC
→ 110	92	x	104
> CC1(C)CC(=O)C2=C(C1)Nc1[nH]c(=O)[nH]c(=O)c1C2c1cccs1 (stereo unspecified)
→ 99	101	1	105
> Cc1nc(C)c(C(=O)NCCc2nc3ccccc3[nH]2)s1
→ 71	87	-23	100
> Cc1sc2ncn3c(SCC(=O)Nc4ccc5c(c4)CCC5)nnc3c2c1C
→ x	x	-47	102
> COc1ccc(-c2cc(C)no2)cc1S(=O)(=O)NCc1ccc(OC(C)C)cc1
→ 100	95	x	106
> O=S(=O)(Nc1ccc(-c2ccc(N3CCOCC3)nn2)cc1)c1ccc(F)cc1F
→ x	x	-17	105
> Cc1ccc(N(CC(=O)NCCc2ccccc2)S(=O)(=O)N(C)C)cc1
→ 101	84	-47&-1	102&97
> CC1(C(=O)NC2CCCCC2)Cn2c(c(-n3cccc3)c3ccccc32)C(=O)N1CCC1=CCCCC1 (stereo unspecified)
→ x	x	-10	100
> N#Cc1cnn(-c2ccccc2)c1C(F)(F)F
→ x	x	-10	106
> FC(F)(F)c1ccc(CSc2ncnc3c2oc2ccccc23)cc1
→ 101	85	-22	101
> COc1ccc(NC(=O)c2nnn(Cc3nc(-c4ccccc4OC)oc3C)c2C)cc1
→ x	x	5	101
> O=c1[nH]c(=O)n(-c2ccccc2)[nH]1
→ 65	92	-12	x
> Cc1oc2c(c1C(=O)NCc1ccccn1)C(=O)c1ccccc1C2=O
→ 0.6*	1.5*	-68	102
> O=C(O)Sc1nnc(CCCO)n1-c1ccccc1
→ 104	82	-17	x
> COc1cc(C#N)ccc1OC(=O)C(CCSC)N1C(=O)c2ccccc2C1=O (stereo unspecified)
→ 78	94	-35	x
> CNC(=O)c1cccc(S(=O)(=O)N(C)C)c1
→ 113	100	-36	107
> CCNS(=O)(=O)c1ccc(OC)c(C(C)(C)C)c1
→ 93	101	-2	103
> CCn1cc(S(=O)(=O)c2cc(C)cc(C)c2)c(=O)c2cc(F)c(N3CCOCC3)cc21
→ 114	93	x	103
> CCC(Sc1nc2c(c(=O)[nH]1)CCC2)C(=O)NC1CCCCC1 (stereo unspecified)
→ 95	88	-15	100
> Cc1ccc(-c2nc(C#N)c(NC3CC3)o2)cc1
→ 120	82	-40	x
> CC(C(=O)N1c2ccccc2C(C)(c2ccccc2)CC1(C)C)N1C(=O)C2CCCCC2C1=O (stereo unspecified)
→ x	x	-8	104
> O=S(=O)(c1cccc2nsnc12)N1CCN=C1N1CCN(c2ccc(F)cc2)CC1
→ x	x	-100	106

Next part.
Under each structure – Sa growth inh	Sa growth inh second temp	HCMV UL50-53 inh	GIV Gai3 FP
> CCN(CC)Cc1c(O)ccc2c(=O)c(-c3ccccc3OC)coc12
→ 85	80	-26	100
> Cc1csc(-n2[nH]c(C)c(CC(=O)Nc3cccc(Cl)c3)c2=O)n1
→ x	x	8	103
> COc1ccc(-c2noc(-c3ccc(N4CCN(c5ccccc5OC)CC4)c([N+](=O)[O-])c3)n2)cc1
→ 97	80	-18	101
> Cc1cccc(Nc2nnc(SCC#N)s2)c1
→ 94	90	-8	x
> CC1CCN(c2nc3c(S(=O)(=O)c4cccc(Cl)c4)nnn3c3ccsc23)CC1
→ 89	84	x	99
> Cc1ccc(-n2c(SCc3cccc(C(F)(F)F)c3)nnc2-c2ccncc2)cc1
→ 95	100	-5	x
> CC(C)N(CC(=O)N1c2ccccc2CC1C)Cc1ccccc1 (stereo unspecified)
→ 103	95	-26	x
> CC(C)(CC(=O)N1CCN(c2ccc(F)cc2)CC1)CC1=NS(=O)(=O)c2ccccc2N1
→ x	x	-17	101
> O=C(CN1C(=O)CSc2ccc(S(=O)(=O)N3CCCC3)cc21)NCc1ccc(Cl)cc1
→ 96	50	x	109
> O=C(c1ccccc1)c1ccsc1
→ 108	68	-11	103
> O=C(O)C1Cc2ccccc2CN1C(=O)CSc1nnc(-c2ccncc2)o1 (stereo unspecified)
→ 107	88	0	x
> O=c1cc(-c2cc3c(ccc4ccccc43)oc2=O)c2ccc(O)cc2o1
→ x	x	-2	100
> CCN(CCN(C)C)C(=O)c1cc2c(s1)-c1c(C)cccc1OC2
→ 101	59	-70	101
> O=C(CN1C(=O)c2cccnc2Sc2ccccc21)Nc1cc(F)ccc1F
→ 79	76	x	103
> CCSc1nnnn1-c1ccccc1
→ 92	100	8	100
> CCOc1ccc(CCNC(=O)CN2C(=O)c3ccccc3C2=O)cc1OCC
→ 98	87	-2	103
> CC(C)NC(=O)c1nn(C)c2c1CS(=O)(=O)c1ccccc1-2
→ 102	106	-2	102
> CCOc1cccc2sc(N(Cc3cccnc3)C(C)=O)nc12
→ 89	84	x	100
> COc1ccc2nc(NC(=O)c3nc(SCc4ccc(F)cc4)ncc3Cl)sc2c1
→ 104	94	-1	98
> O=C(O)C1CCC(c2ccccc2)CC1 (stereo unspecified)
→ 108	88	-1	101
> COC(=O)c1cn(-c2ccccc2)nc1C(=O)OC
→ 89	74	-5	99
> CCc1cccc(NC(=O)CN2C(=O)CCc3cc(S(=O)(=O)N4CCOCC4)ccc32)c1
→ 87	85	x	101
> CC1=C(c2ccc(C(C)C)cc2)S(=O)(=O)N=C1N1CCN(c2ccc(F)cc2)CC1
→ 111	91	-14	99
> Cc1ccc(C(c2nnnn2C2CCCC2)N(C)C2CCCCC2)cc1 (stereo unspecified)
→ 95	82	1	102
> CC(C)(C)OC(=O)c1c(F)c(F)c(F)c(F)c1F
→ 101	92	-10	108
> Nc1c2c(nc3cccc(F)c13)OCCC2
→ 97	88	-15	104
> O=C(C1CCCO1)N1CCN(Cc2ccccc2F)CC1 (stereo unspecified)
→ 106	98	-30	103
> O=C1COc2ccc(S(=O)(=O)N3CCN(C(=O)c4ccc(Br)cc4)CC3)cc2N1
→ x	x	-3	111
> CN(Cc1ccccc1)S(=O)(=O)c1cc(C(=O)N2CCCC2)cs1
→ x	x	-10	111
> CCOC(=O)N1CCN(C2CCN(CC)CC2)CC1
→ 89	100	-9	96

Single records, from the list above. Order of screens: Sa growth inh | Sa growth inh second temp | HCMV UL50-53 inh | GIV Gai3 FP
COc1cccc(N=Cc2ccc(O)cc2)c1 is listed with 104 | 85 | -3 | x
O=C(NC(=S)Nc1nncs1)c1ccccc1 is listed with 98 | 78 | -16 | x
CCc1cccc(NC(=O)CN2C(=O)CCc3cc(S(=O)(=O)N4CCOCC4)ccc32)c1 is listed with 87 | 85 | x | 101
COC(=O)c1cn(-c2ccccc2)nc1C(=O)OC is listed with 89 | 74 | -5 | 99
COc1cc(C#N)ccc1OC(=O)C(CCSC)N1C(=O)c2ccccc2C1=O (stereo unspecified) is listed with 78 | 94 | -35 | x

(list continues)
Under each structure – Sa growth inh	Sa growth inh second temp	HCMV UL50-53 inh	GIV Gai3 FP
> COc1ccc2nc(C)cc(Oc3ccc4c(c3)OCO4)c2c1
→ 78	99	-33	x
> COc1ccc(C(=O)Nc2cc3c(cc2N2CCCC2)n(C)c(=O)c(=O)n3C)cc1OC
→ 106	82	-30	104
> Cc1ccc2c(C)c(C(=O)NCC(c3ccc(Cl)cc3)N3CCOCC3)oc2c1 (stereo unspecified)
→ 98	79	-31	97
> Cn1c(=O)c2c(nc(SCC(=O)Nc3ccc(OC(F)(F)F)cc3)n2Cc2cccc(C(F)(F)F)c2)n(C)c1=O
→ 83	99	7	109
> O=C(NCCN1CCOCC1)c1cnn2c(C(F)(F)F)cc(-c3ccccc3)nc12
→ x	x	-17	106
> CCOc1ccc(-c2nc(=S)[nH][nH]2)cc1
→ 96	63	-4	x
> CC(NC(=O)NCC1CCCO1)(C(F)(F)F)C(F)(F)F (stereo unspecified)
→ 92	108	-4	104
> Cc1ccc2c(c1)NC(=O)C(CC(=O)NCCN1CCN(c3cc(Cl)ccc3C)CC1)O2 (stereo unspecified)
→ 88	91	-20	101
> CCOC(=O)C1C(=O)CC(=O)C(C(=O)OCC)C1c1ccc(OC)cc1 (stereo unspecified)
→ 85	82	-9	x
> COc1cc2ccc(=O)oc2cc1OC
→ 93	83	-107	105
> CCOc1cccc(C(=O)Nc2ccc(Cl)cn2)c1
→ 112	76	-14	95
> CN(Cc1ccccc1)C(=O)CCS(=O)(=O)c1ccc(Br)cc1
→ 90	75	-4	x
> COc1ccc(C2C3=C(CC(c4ccco4)CC3=O)Nc3ccccc3N2C(=O)C(F)(F)F)cc1OC (stereo unspecified)
→ x	x	-14	104
> N#Cc1nc(Cc2ccccc2)oc1NCc1ccco1
→ 108	97	18	112
> CCOc1ccc(S(=O)(=O)NCCC(=O)N=c2sc3ccccc3n2C)cc1
→ 123	92	4	x
> CC(NC(=O)c1ccc(Cl)cc1Cl)C(=O)NCc1ccco1 (stereo unspecified)
→ 99	93	46	101
> Cc1cc(F)ccc1NC(=O)C1CCCN(c2nnc(-n3c(C)ccc3C)s2)C1 (stereo unspecified)
→ 106	92	0	100
> CC(=O)N(C)c1ccc(NC(=O)c2c(C)oc3ccc(OCc4ccccc4)cc23)cc1
→ x	x	-3	101
> CCNc1nc(C)cc(Nc2ccc(NC(=O)C(C)C)cc2)n1
→ x	x	-9	108
